Compound activity as filed in PubChem.
Mtb MbtI inh: MbtI salicylate synthase inhibition | AID 493033 | P9WFX0 | purified MbtI enzyme, fluorescence intensity read-out | inhibition, %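 (about 17 µg/mL by stock and volumes)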 | actives 0.89% (n = 100,000);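 active = above 50% in both replicates, above 80% if mildly self-fluorescent; inactive = the rest, strongly fluorescent compounds included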;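 note: 0% = mean of negative and 100% = mean of positive controls; one replicate is shown; some compounds called inactive have numbers as strong as hits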
Target sequence (P9WFX0 whole entry, looked up): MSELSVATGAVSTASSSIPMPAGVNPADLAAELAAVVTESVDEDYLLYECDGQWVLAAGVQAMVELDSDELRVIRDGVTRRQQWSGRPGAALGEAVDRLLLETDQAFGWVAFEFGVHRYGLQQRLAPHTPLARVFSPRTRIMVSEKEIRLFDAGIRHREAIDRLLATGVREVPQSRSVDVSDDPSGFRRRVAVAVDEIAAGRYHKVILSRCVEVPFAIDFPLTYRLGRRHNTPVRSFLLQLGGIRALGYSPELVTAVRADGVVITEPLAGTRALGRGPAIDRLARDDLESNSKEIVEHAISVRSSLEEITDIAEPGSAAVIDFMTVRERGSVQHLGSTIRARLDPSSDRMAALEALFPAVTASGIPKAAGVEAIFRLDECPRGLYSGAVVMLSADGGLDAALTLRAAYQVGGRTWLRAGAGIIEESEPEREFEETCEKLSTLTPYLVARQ
Mtb MenB inh: Mtb MenB enzyme inhibition; AID 540299; MenB enzyme assay, absorbance read-out; some hits fall short of the stated cut; inhibition, %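 (about 12 µg/mL by stock and volumes)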; actives 0.43% (n = 100,000);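 active = mean of two replicates above 30%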;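 note: 0% = no compound and 100% = wells with inactive enzyme; the first replicate is given; strong numbers were not always called active; inactives centre near -10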
Polio RdRp inh: inhibitors of poliovirus RNA polymerase binding and polymerization; % elongation, % (compound at 16.7 µg/mL); poliovirus polymerase elongation, fluorescence polarization; active compounds read low; actives 0.66% (n = 150,000); P03300; in the data active = % elongation below about 90%; note: some results filed as inactive read as strong as hits
Target sequence (P03300 1749-2209 limits assumed): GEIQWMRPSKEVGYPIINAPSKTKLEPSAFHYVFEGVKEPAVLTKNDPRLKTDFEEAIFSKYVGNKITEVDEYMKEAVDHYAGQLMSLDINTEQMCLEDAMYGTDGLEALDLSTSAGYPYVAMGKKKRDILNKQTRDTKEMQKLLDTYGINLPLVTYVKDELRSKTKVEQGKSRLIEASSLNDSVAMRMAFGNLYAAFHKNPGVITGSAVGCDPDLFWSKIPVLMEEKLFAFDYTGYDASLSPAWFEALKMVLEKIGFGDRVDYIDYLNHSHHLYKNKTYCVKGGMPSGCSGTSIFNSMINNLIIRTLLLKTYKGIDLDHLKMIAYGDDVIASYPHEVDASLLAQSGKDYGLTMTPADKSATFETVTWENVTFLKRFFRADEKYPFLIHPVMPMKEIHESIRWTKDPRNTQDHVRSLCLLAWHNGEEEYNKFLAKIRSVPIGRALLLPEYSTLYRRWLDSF
Polio RdRp inh intensity: second read-out of Polio RdRp inh, no call of its own (marks repeat the call); % elongation; measured here: total intensity read-out; formula for this scale not given here;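 total fluorescence in place of polarization; lower means less elongation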
An asterisk follows results filed as active; . = not tested or not shown; & = joins results of further samples.

SMILES | Mtb MbtI inh | Mtb MenB inh | Polio RdRp inh | Polio RdRp inh intensity
Cc1ccc(S(=O)(=O)N2Cc3ccccc3CC2C(=O)NCCC(C)C)cc1 (stereo not given) | -15.0 | . | 100.0 | 100.0
CCCn1c(SCc2nc3ccccc3[nH]2)nc2ccccc21 | 9.4 | -34.2 | 101.0 | 99.0
O=C(CCc1nc2ccccc2s1)NC1CCCc2ccccc21 (stereo not given) | -9.0 | . | 100.0 | 103.0
O=C(COc1nc2ccccc2nc1N1CCOCC1)N1CCc2ccccc2C1 | -452.4 | 0.7 | 104.0 | 108.0
O=C(COC(=O)Cc1ccccc1)Nc1ccc(Cl)cn1 | -5.0 | -17.2 | 109.0 | 115.0
Cc1cc(CSc2ccccc2C(=O)O)on1 | 13.8 | 0.5 | 99.0 | 96.0
CCS(=O)(=O)CCSc1nc(C)cc(C)c1C#N | 6.0 | 4.1 | 101.0 | 99.0
CCc1ccc(NC(=O)C(C)OC(=O)c2cccc(N(C)C)c2)cc1 (stereo not given) | -37.4 | . | 104.0 | 108.0
CC(C)(C)OC(=O)N1CCCN(S(=O)(=O)c2ccc(-n3cccn3)cc2)CC1 | 7.6 | -1.5 | 104.0 | 103.0
O=C(/C=c1/[nH]/c(=C/c2ccc(F)cc2)c(=O)[nH]c1=O)c1ccccc1 | . | -1.8 | 43.0 | 246.0
S=c1[nH]nc(COc2ccccc2Cl)n1C1CC1 | 83.8* | -18.9 | . | .
CC(Sc1nc2sc3c(c2c(=O)[nH]1)CCCC3)C(=O)Nc1nccs1 (stereo not given) | 3.9 | 4.3 | 102.0 | 103.0

Single records, as listed above. Order of screens: Mtb MbtI inh | Mtb MenB inh | Polio RdRp inh | Polio RdRp inh intensity
Shown for S=c1[nH]nc(COc2ccccc2Cl)n1C1CC1 → 83.8* | -18.9 | . | .
Shown for CCc1ccc(NC(=O)C(C)OC(=O)c2cccc(N(C)C)c2)cc1 (stereo not given) → -37.4 | . | 104.0 | 108.0
Shown for O=C(COc1nc2ccccc2nc1N1CCOCC1)N1CCc2ccccc2C1 → -452.4 | 0.7 | 104.0 | 108.0
Shown for O=C(/C=c1/[nH]/c(=C/c2ccc(F)cc2)c(=O)[nH]c1=O)c1ccccc1 → . | -1.8 | 43.0 | 246.0

Next results follow.
SMILES | Mtb MbtI inh | Mtb MenB inh | Polio RdRp inh | Polio RdRp inh intensity
CCN1CCN(C(=O)CCC(=O)N2CC3CCCN3c3ccccc32)CC1 (stereo not given) | 23.8 | -9.4 | 101.0 | 103.0
O=C(COC(=O)c1ccc(S(=O)(=O)N2CCCC2)cc1)NCc1ccccc1 | -15.8 | -15.6 | 104.0 | 110.0
O=C(O)C1OC(Oc2cc(O)c3c(=O)cc(-c4ccccc4)oc3c2O)C(O)C(O)C1O (stereo not given) | 14.7 | 0.3 | 100.0 | 104.0
Cc1ccc(-n2nc(CC#N)c(C#N)c2N)cc1 | -9.2 | 7.8 | 113.0 | 120.0
CC1(C)OC2C(CO)OC(n3cnc4c(=O)[nH]cnc43)C2O1 (stereo not given) | -3.9 | -8.9&-44.4 | 103.0&107.0 | 104.0&106.0
CC(=O)N1CCN(C2=NC(=O)C(=C3CCCCC3)S2)CC1 | -9.2 | 18.1 | 103.0 | 103.0
Cc1cc(=O)n(CC(=O)Nc2cc(Cl)ccc2C)c(C(C)C)n1 | -15.4 | -15.9 | 102.0 | 107.0
c1ccc(NCc2nnc3n2CCCCC3)cc1 | -19.2 | . | 102.0 | 106.0
Cc1nn(Cc2ccccc2Cl)c(C)c1NC(=O)c1noc2c1CC(C(C)(C)C)CC2 (stereo not given) | -0.8 | -50.9 | 99.0 | 103.0
CCOC(=O)[C@H](CCc1ccccc1)N[C@@H](C)C(=O)N1CCC[C@H]1C(=O)O | -12.0 | -2.9 | 98.0 | 100.0
O=C(CC1(c2ccc(Cl)cc2)C(=O)c2ccccc2C1=O)N1CCOCC1 | -8.2 | -35.4 | 104.0 | 104.0
O=C(O)CNC(=O)CC1S\C(=N/N=C/C=C/c2ccccc2)N(Cc2ccco2)C1=O (stereo not given) | 9.9 | -8.6 | 105.0 | 110.0

Nothing new here: entries from further up.
SMILES | Mtb MbtI inh | Mtb MenB inh | Polio RdRp inh | Polio RdRp inh intensity
CCN1CCN(C(=O)CCC(=O)N2CC3CCCN3c3ccccc32)CC1 (stereo not given) | 23.8 | -9.4 | 101.0 | 103.0
O=C(COC(=O)c1ccc(S(=O)(=O)N2CCCC2)cc1)NCc1ccccc1 | -15.8 | -15.6 | 104.0 | 110.0
O=C(O)C1OC(Oc2cc(O)c3c(=O)cc(-c4ccccc4)oc3c2O)C(O)C(O)C1O (stereo not given) | 14.7 | 0.3 | 100.0 | 104.0
Cc1ccc(-n2nc(CC#N)c(C#N)c2N)cc1 | -9.2 | 7.8 | 113.0 | 120.0
CC1(C)OC2C(CO)OC(n3cnc4c(=O)[nH]cnc43)C2O1 (stereo not given) | -3.9 | -8.9&-44.4 | 103.0&107.0 | 104.0&106.0

Next results.
SMILES | Mtb MbtI inh | Mtb MenB inh | Polio RdRp inh | Polio RdRp inh intensity
FC(F)(F)c1cc(-c2cccs2)nc(-n2cc(Br)cn2)n1 | 27.6 | -13.8 | 104.0 | 103.0
CC(=O)N1CCN(c2ccccc2NC(=O)COc2ccccc2)CC1 | -10.2 | -14.8 | 104.0 | 103.0
CC(C)NC(=O)c1cc(C(C)C)on1 | -12.4 | -2.8 | 101.0 | 108.0
O=c1[nH]c2ccc(S(=O)(=O)NC3CCCCC3)cc2[nH]1 | 0.1 | -24.8 | 102.0 | 103.0
O=C(O)c1cccc(S(=O)(=O)/N=C2/C=C(NS(=O)(=O)c3ccccc3)C(=O)c3ccccc32)c1 | 29.1 | -8.5 | 96.0 | 96.0
Cc1c(C)c(C)c(C(O)c2ccccc2)c(C)c1C (stereo not given) | -10.2 | -19.9 | 102.0 | 110.0
Cc1oc(-c2ccccc2)nc1C(=O)OCc1nc2ccccc2c(=O)n1CC#N | -6.8 | -12.0 | 113.0 | 121.0
O=C(O)/C=C/C(=O)N(Cc1ccccc1)Cc1ccco1 | -9.7 | . | 101.0 | 101.0
N#CCSc1ccc2nnc(-c3ccncc3)n2n1 | 13.1 | -8.9 | 103.0 | 108.0
COC(=O)c1ccc(COC(=O)/C=C/c2cccs2)o1 | 3.3 | -16.5 | 103.0 | 106.0
COCCNS(=O)(=O)c1ccc(S(=O)(=O)N2CCCCC2)cc1 | -8.4 | -48.6 | 106.0 | 101.0
CCN1CCN(c2ccc(NC(=O)COc3ccccc3)cc2)CC1 | -7.5 | -47.7 | 106.0 | 100.0
Cn1nccc1C(=O)OCC(=O)Nc1ccccc1Cl | -3.8 | -9.9 | 102.0 | 108.0
CCN(CC)C(=O)CSc1nc(-c2ccccc2)cc(=O)[nH]1 | 7.0 | -37.2 | 104.0 | 104.0
S=C(SN1CCOCC1)N1CCOCC1 | . | -68.9 | 77.0* | 82.0*
CCOC(=O)c1cc(-c2csc(CS(C)(=O)=O)n2)on1 | -0.2 | -9.9 | 103.0 | 105.0
CC(Sc1nc(N2CCOCC2)c2c(c1C#N)CC(C)(C)OC2)C(=O)Nc1ccccc1 (stereo not given) | 0.7 | -4.2 | 100.0 | 103.0
CC(C)CCN1CCC(CNS(=O)(=O)c2ccc(-c3cc(C(F)(F)F)no3)s2)CC1 | -17.2 | -11.3 | 103.0 | 104.0
Cc1ccccc1OCCN1C(=O)NC(C)(c2ccccc2)C1=O (stereo not given) | -11.9 | -6.1 | 106.0 | 111.0
CN(Cc1ccccc1)C(=O)c1ccc2c(c1)OCO2 | . | -15.0 | 103.0 | 107.0
Cc1cc(C)c2c(n1)CC(C)(C)CC2=O | 12.4 | -12.1 | 100.0 | 99.0
Cc1sc2nc(-c3cccs3)oc(=O)c2c1C | . | -37.0 | 110.0 | 105.0
COc1ccc2[nH]c(=O)c(CN(CCCN3CCOCC3)C(=O)NCc3ccccc3)cc2c1 | 86.6 | 24.9 | 102.0 | 102.0
O=C1CCN(CC(=O)Nc2ccc(Cl)cc2C(F)(F)F)CC1 | -7.5 | -11.2 | 96.0 | 102.0
CCn1c(COC(=O)c2c(NC(C)=O)sc(C)c2C)nc2cc(S(=O)(=O)N(C)C)ccc21 | -5.3 | 3.7 | 99.0 | 103.0
CN(C)c1ccc(/C=C2/C(=O)NC(=O)N(C(C)(C)C)C2=O)cc1 | -7.7 | -44.2 | 59.0 | 152.0
C[C@]12CC[C@H]3[C@@H](CC[C@]4(O)C[C@@H](O)CC[C@]34C=O)[C@@]1(O)CC[C@@H]2C1=CC(=O)OC1 | -5.0 | -18.3 | 101.0 | 99.0
CC(OC(=O)c1cccn1C)C(=O)Nc1ccc(Cl)cc1 (stereo not given) | -3.5 | -14.2 | 113.0 | 119.0
CCC(C)n1c(SCc2ccccc2Cl)nc2ccsc2c1=O (stereo not given) | -0.8 | -5.2 | 105.0 | 103.0
Cc1ccc(NC(=O)CCSc2nnc(C)o2)cc1 | 0.1 | -49.9 | 102.0 | 99.0
N#C/C(=C\c1cn(-c2ccccc2)nc1-c1cccs1)c1cccc(C#N)c1 | -3.9 | -56.7 | 104.0 | 105.0
CC1(C)CC(=O)C2=C(C1)Nc1ccc3ccccc3c1C2c1cccnc1 (stereo not given) | . | -5.4 | 101.0 | 92.0
O=C(COc1ccccc1Cl)N(Cc1ccco1)Cc1ccccc1F | 7.0 | -25.4 | 102.0 | 104.0
CC1CC(C)CN(S(=O)(=O)c2ccc(Cl)c(C(=O)O)c2)C1 (stereo not given) | -2.4 | -13.4 | 102.0 | 107.0
CCCn1c(SC(C(=O)NC(=O)NC)c2ccccc2)n[nH]c1=O (stereo not given) | -3.9 | 6.7 | 100.0 | 101.0
Cc1cc(S(=O)(=O)NC2CCCCNC2=O)c(C)s1 (stereo not given) | -11.2 | -1.0 | 103.0 | 104.0
COc1ccc(Cl)cc1C(=O)N1CCCC1 | 8.8 | -44.2 | 101.0 | 102.0
O=C(NC(Cc1ccccc1)C(=O)O)C1CCCCC1 (stereo not given) | -16.4 | -16.8 | 100.0 | 101.0
N#Cc1ccc(CSc2nnc(-c3cccs3)n2CC2CCCO2)cc1 (stereo not given) | 11.2 | -17.0 | 107.0 | 102.0
CCOC(=O)c1c(C)[nH]c(C)c1C(=O)COC(=O)c1ccc(N2CCCC2=O)cc1 | 11.4 | -18.7 | 99.0 | 97.0
Cc1nc(Cc2nnc(SC/C(O)=C(\C#N)c3nc4ccccc4[nH]3)o2)cs1 | 25.6 | 2.7 | 115.0 | 131.0
CSc1nc(-c2ccccc2)c(C#N)c(N(C)C2CCCCC2)n1 | -10.0 | -6.9 | 102.0 | 99.0
CC(C)C(=O)N1C(=O)c2cccc3c(S(=O)(=O)N(C)C)ccc1c23 | 138.8 | -7.1 | . | .
CCc1c(C)[nH]c(C(=O)OCc2ccccc2)c1C | . | -29.2 | 105.0 | 105.0
COc1ccc(NS(=O)(=O)c2cc(C(=O)N3CCN(C(C)=O)CC3)ccc2Cl)cc1 | -0.6 | -10.8 | 104.0 | 105.0
Cc1cccc(C(CC(=O)NC2CC2)n2cccc2)c1 (stereo not given) | -12.1 | 2.9 | 101.0 | 104.0
COc1cccc(/C=N/NC(=O)COc2c(C)cccc2C)c1O | -4.8 | -27.9 | 101.0 | 101.0
CC1=C/C(=N/NC(=O)COc2cc(C)ccc2C(C)C)CC1 | 21.8 | -6.1 | 103.0 | 100.0
Cc1[nH]c2ccc(F)cc2c1CCN(Cc1ccco1)C(=S)NC1CCCCC1 | 1.5 | -47.9 | 104.0 | 100.0
C=CCn1c(=C(C#N)C#N)s/c(=C\c2ccccc2OC(F)F)c1=O | -12.2 | -94.7 | 106.0 | 110.0
O=C(CSc1nc2ccccc2o1)NCCc1ccccc1 | -8.7 | . | 103.0 | 103.0
CS(=O)(=O)c1nc2ccccc2n1C/C=C/c1ccccc1 | 17.5 | -23.4 | 104.0 | 107.0
O=C(Nc1ccccc1)N(Cc1c[nH]c2ccccc12)C1CCCC1 | 4.7 | 10.7 | 98.0 | 100.0
N#CC1=C(N)OC2=C(C(=O)CCC2)C1c1cccnc1 (stereo not given) | -8.4 | 9.6 | 101.0 | 104.0
O=C(c1ccco1)N1CCCSC1=Nc1ccccc1 | -18.7 | -32.3 | 102.0 | 101.0
Cc1ccc(C)n1NC(=O)c1cccc(Br)c1 | -10.3 | -15.8 | 102.0 | 103.0
COc1ccc(CNS(=O)(=O)c2ccc(-c3cc(C)no3)cc2)cc1 | -3.4 | -29.1 | 104.0 | 103.0
Clc1ccc(-c2noc3ncnc(NC4CC4)c23)cc1 | -4.8 | 4.4 | 102.0 | 105.0
O=C(OCc1ccccc1)c1cccc(-c2nnc(-c3ccccc3)o2)c1 | -5.9 | -13.5 | 99.0 | 102.0
CCOc1ccc(CCN=C(CC)C2=C(O)CCCC2=O)cc1OCC | . | -21.2 | 113.0 | 104.0

(listing goes on)
SMILES | Mtb MbtI inh | Mtb MenB inh | Polio RdRp inh | Polio RdRp inh intensity
S=C(c1ccccn1)N1CCN(C(=S)c2ccccn2)CC1 | 34.9 | -41.2 | . | .
CN(C)c1ccc(-n2cccc2/C=N/n2cnnc2)cc1 | -155.7 | -8.7 | 104.0 | 104.0
CCOC(=O)C1(CCSC)NC(c2cccs2)C2C(=O)N(CC)C(=O)C21 (stereo not given) | -6.3 | -29.9 | 102.0 | 104.0
O=N/C(C(=O)c1ccccc1)=C(\O)c1ccccc1 | . | -11.0 | 103.0 | 98.0
O=C(Oc1ccc(F)cc1)/C(=C\c1cccs1)c1ccsc1 | -11.8 | 7.0 | 109.0 | 114.0
Nc1ccc2c3c(cccc13)C(=O)NC2=O | -20.3 | -15.8 | 86.0&67.0 | 181.0&188.0
CCOc1ccc2c(c1)c(=O)c1cccnc1n2Cc1cccc(OC)c1 | -10.4 | -19.9 | 103.0 | 102.0
